Cruzain inh noDet – cruzain (T. cruzi) inhibition without detergent; P25779; purified cruzain, Z-FR-AMC fluorescence, no detergent; Potency, µM, without a hit: max response, negative = inhibition, usual class: inhibitors; actives 2.3% (n = 200,000); AID 1476; active = well fitted curve in the direction sought with a large enough effect; inconclusive = small, poorly fitted or top-dose-only effect, or another doubt; inactive = no such curve, though single readings can be large; an effect the other way counts as inactive or inconclusive;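 note: plate controls were enzyme without inhibitor for no effect and buffer without enzyme for full effect; nearly all actives have a fitted effect of over 40% in size; top concentration of the series not given in the record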
Target sequence (P25779 123-467 limits assumed): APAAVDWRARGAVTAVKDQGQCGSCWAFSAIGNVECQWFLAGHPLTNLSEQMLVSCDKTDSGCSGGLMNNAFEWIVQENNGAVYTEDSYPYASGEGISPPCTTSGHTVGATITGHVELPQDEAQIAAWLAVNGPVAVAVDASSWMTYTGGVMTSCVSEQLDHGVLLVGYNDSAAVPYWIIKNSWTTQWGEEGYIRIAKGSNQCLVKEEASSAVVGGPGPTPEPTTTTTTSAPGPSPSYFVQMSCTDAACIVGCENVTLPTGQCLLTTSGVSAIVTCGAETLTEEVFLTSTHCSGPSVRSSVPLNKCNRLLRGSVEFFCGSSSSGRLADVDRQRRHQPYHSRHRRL
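Detergent-free condition (0.00005% Triton X-100) in acetate buffer pH 5.5 with DTT. 1.5 nM enzyme and compound were pre-mixed 15 min, then 2 uM Z-FR-AMC substrate added; reaction progress from fluorescence change between first and third reads (60 s).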
SARS PLP yeast – SARS-CoV PLP inhibition in yeast | S. cerevisiae expressing SARS-CoV PLpro, growth rescue; control for the full effect not named in the record | Potency, µM (doses to about 32.9 µM), inactives show at the highest dose activity, positive = growth rescue | actives 0.19% (n = 330,000) | AID 485353; note: 0% is about no effect; nearly all actives have a fitted effect of over 55% in size; growth read by luminescence after 48 h
LASV entry inh – Lassa virus entry inhibition. AID 540256. Potency, µM (top dose mostly 37.9 µM), inactives show at the top dose activity change, negative = inhibition, hits mostly inhibitors. Lassa virus pseudotype entry inhibition, cell reporter; control for the full effect not named in the record. actives 1.2% (n = 300,000); active means well fitted inhibition curve with a large enough effect; inconclusive means small, poorly fitted or top-dose-only effect, or effect the other way; inactive means flat fitted curve, though single readings scatter; tested in HEK293 cells; note: % is set by controls: 0 for no effect and ±100 for the full control effect; nearly all actives have a fitted effect of over 50% in size; luciferase read-out
Cruzain Triton – cruzain (T. cruzi) inhibition with detergent; purified cruzain, Z-FR-AMC fluorescence, 0.01% Triton; Potency, µM, for inactives: max response, negative = inhibition, hits mostly inhibitors; actives 0.43% (n = 200,000); active = well fitted curve in the direction sought with a large enough effect; inconclusive = small, poorly fitted or top-dose-only effect, or another doubt; inactive = no such curve, though single readings can be large; an effect the other way counts as inactive or inconclusive;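 note: plate controls were neutral wells for no effect and buffer without enzyme for full effect; nearly all actives have a fitted effect of over 40% in size; top concentration of the series not given in the record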
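Detergent-containing arm of a paired screen for aggregation-based inhibition: 0.01% Triton X-100 present. Cruzain at 1.5 nM cleaved 2 uM Z-FR-AMC at pH 5.5 with 5 mM DTT; AMC fluorescence gain over 60 s measured activity.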
NS1 function inh – influenza NS1 inhibition; S. cerevisiae slowed by influenza A NS1, growth recovery by OD600; Potency, µM (highest dose often 46.1 µM), without a hit: top-dose activity, positive = more growth; actives 0.4% (n = 270,000); note: actives are rising curves; nearly all actives have a fitted effect of over 50% in size
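OD600 was taken as the measure of yeast growth restored by compound in an NS1-expressing S. cerevisiae strain. Cells had been washed out of glucose medium and diluted 1:100 into galactose -URA medium, pH 6.0.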
Marburg entry inh – blocks Marburg virus binding to or entry into cells; Marburg virus pseudotyped entry inhibition, cell reporter; control for the full effect not named in the record; about a third of the inactives were read at about 46 µM; actives 1.8% (n = 300,000); Potency, µM (series often up to 37.8 µM), for inactives: at the highest dose activity change, negative = inhibition, most hits filed as inhibitors; active = well fitted inhibition curve with a large enough effect; inconclusive = small, poorly fitted or top-dose-only effect, or effect the other way; inactive = flat fitted curve, though single readings scatter; tested in HEK293 cells; about a fifth of its hits are not listed in these tables; note: % is set by controls: 0 for no effect and ±100 for the full control effect; luciferase read-out
RE007 growth inh – less growth of the S. pombe RE007 Vpr strain; Potency, µM (titrated, usually from 92.2 µM), for the others: top-dose activity change, negative = less growth; AID 651644; S. pombe RE007 Vpr strain, BacTiter-Glo ATP luminescence, 24 h; control for the full effect not named in the record; actives 0.21% (n = 360,000); active = well fitted falling curve with a large enough effect; inconclusive = small, poorly fitted or top-dose-only effect; inactive = no such curve, though single readings can be large or run the other way;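 note: % is set by controls: 0 for no effect and ±100 for the full control effect; nearly all actives have a fitted effect of over 50% in size; the assay follows cell death caused by Vpr and the record does not say whether a fall means rescue or toxicity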
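Fission yeast strain RE007, carrying one chromosomally integrated HIV-1 vpr copy, was seeded at OD 0.01 in PMG+AL medium with 23 nL pinned compound. After 24 h at 30 °C and 99% humidity, viability was read by BacTiter-Glo luminescence.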
StopGo reporter – lowers the luciferase signal of an FMDV 2A StopGo reporter; AID 1159524; actives 1.2% (n = 410,000); human cells with a luciferase reporter of 2A StopGo recoding; control for the full effect not named in the record; Potency, µM (series often up to 57.9 µM), inactives show at the top dose signal change, negative = less light; active = well fitted falling curve with a large enough effect; inconclusive = small, poorly fitted or top-dose-only effect; inactive = no such curve, though single readings can be large or run the other way; tested in HEK293T cells; note: % is set by controls: 0 for no effect and ±100 for the full control effect; nearly all actives have a fitted effect of over 45% in size; luciferase light after 4 h
An asterisk follows results filed as active; ? = inconclusive; · = no result given; [ ] = another dose, or the depositor's remark. Unless noted, calls come from the whole dose curve; as a rule, active means well fitted rising curve with a large enough effect; inconclusive means small, poorly fitted or top-dose-only effect; inactive means no such curve, though single readings can be large or run the other way. Potency is the fitted concentration of half-maximal effect.

SMILES | Cruzain inh noDet | SARS PLP yeast | LASV entry inh | Cruzain Triton | NS1 function inh | Marburg entry inh | RE007 growth inh | StopGo reporter
CCc1ccc2c(CN(C)Cc3ccc(OC(F)F)c(OC)c3)cc(=O)oc2c1 | · | -3% | -6%[46.1 µM] | · | 0% | ? | -5% | -5%
CCOc1ccc(/C=C2\SC(=S)N(CC(=O)Nc3ccccn3)C2=O)cc1 | · | 4% | 15%[46.1 µM] | · | 14% | 2%[46.1 µM] | 2% | 6%
COc1ccc(NC(=O)Nc2nc(C)cc(C)n2)c(OC)c1 | · | -1% | · | · | 1% | · | 1% | -23%
CCC(CC)C(=O)N1CCc2cc(OC)c(OC)cc2C1COc1ccc(F)cc1 (stereo not given) | ? | · | -14%[46.1 µM] | 0.4% | · | · | · | -11%
Cc1cc(-c2nc3ncccc3o2)ccc1NC(=O)COc1ccc(C(C)(C)C)cc1 | 9% | · | ? | -1.7% | · | ? | · | ?
CCc1ccc(/C=C/C(=O)C2C(=O)c3ccccc3C2=O)cc1 | -3% | -13% | 2.3µM* | -11% | 20% | ? | -26% | ·
COc1ccc(CCNC(=O)C2CCCN(c3nc(C)cc(C)n3)C2)cc1 (stereo not given) | · | -3% | -4% | · | · | 6%[46.1 µM] | -6% | ?
CS(=O)(=O)N(CC(=O)NCC1CCCO1)c1cccc([N+](=O)[O-])c1 (stereo not given) | · | 0% | 9% | · | -1% | 12%[14.2 µM] | 3% | -3%
CCCc1nc2ccccc2c(=O)n1/N=C/c1c(C)[nH]n(-c2ccc(C)cc2)c1=O | ? | 1% | ? | -1.7% | -65% | ? | 16µM* | ?
CCN1C(=O)N[C@@H](c2cccs2)C(C(C)=O)=C1C | · | -2% | · | · | 3% | ? | 0% | -10%
O=C(CSc1nnc(-c2cccnc2)n1Cc1ccco1)Nc1nc(-c2ccc(F)cc2)cs1 | 11% | 6% | -7% | -8.8% | 4% | ? | -12% | 20µM*
Cc1ccc(NC(=O)COc2cccc(/C=C3\SC(=S)N(CCC(=O)O)C3=O)c2)cc1Cl | · | -1% | · | · | 0% | · | 5% | -11%
Clc1cc2c(c(Cn3cnc4ccccc43)c1)OCOC2 | -5% | 7% | -4% | -3.8% | -5% | 0% | 16% | -15%
COc1cc(C(=O)NC2Cc3ccccc3C2)ccc1OC1CCN(C(C)=O)CC1 | · | -2% | ? | · | -16% | 24%[46.1 µM] | 3% | 8%
COc1ccc(OC)c(C2CC(=O)Nc3ccc4ccccc4c32)c1 (stereo not given) | -13% | · | -4%[46.1 µM] | -10% | · | ? | · | -5%
O=C(CSc1ccccc1)Nc1ccc(C(=O)Nc2ccc(O)cc2)cc1 | · | -2% | ? | · | · | ? | -5% | -7%
COc1ccc2[nH]cc(CCNC(=S)NCCc3ccccc3)c2c1 | · | 1% | ? | · | · | ? | 3% | 16%
O=C(NC1CCOCC1)C1CCC(=O)N(Cc2ccc(Cl)cc2)C1 (stereo not given) | · | · | 19% | · | -4% | ? | 26% | -10%
Cc1ccc(-n2ncc3c2CC(C)(C)CC3NC(=O)CCc2ccncc2)cc1 (stereo not given) | · | -1% | -9% | · | -12% | -8% | 0% | -10%
COc1ccc(NC(=S)N(CCc2c(C)[nH]c3ccccc23)Cc2cccnc2)cc1 | 4% | -2% | ? | -1.4% | -4% | -15% | -1% | 3%
Cc1cc(C)cc(-n2c(SC(C)C(=O)NCc3ccc4c(c3)OCO4)nc3ccccc3c2=O)c1 (stereo not given) | -1% | 21% | ? | -3.3% | 20% | ? | 12% | -8%
Cc1oc(-c2ccc(C(=O)NCc3ccc(N(C)C)cc3)cc2)nc1COc1ccccc1 | 3% | · | ? | -1.0% | · | · | · | -17%
O=C(COC(=O)C1CCC1)NCc1ccc(F)cc1 | · | 2% | 2% | · | · | 3% | -13% | -9%
COc1ccccc1/C=C/C(=O)OCC(=O)NCCC1=CCCCC1 | · | 1% | 12% | · | -32% | -14% | 6% | -8%
CC1(C)C(=O)N(CCN2CCC(C(=O)c3ccc(F)cc3)CC2)c2ccccc21 | 2% | · | ? | -4.1% | -13% | ? | -8%[18.4 µM] | ?
CCn1c(=O)c2c(nc3n2CCN3c2ccc(OC)cc2)n(C)c1=O | -5% | · | ? | 0.3% | · | · | · | -25%
Cn1c(-c2cc3ccccc3oc2=O)nc2ccccc21 | · | 0% | · | · | -2% | · | 3% | 41%[activator]
CCCCNC(=O)CSc1nc2nc(C)c(Cc3ccccc3C)c(C)n2n1 | 6% | · | ? | -2.6% | · | 4%[46.1 µM] | · | -13%
COCCN(CCOC)S(=O)(=O)c1ccc(C(=O)Nc2sc3c(c2C(=O)OC)CCN(C)C3)cc1 | -9% | · | 23%[46.1 µM] | -0.4% | · | · | · | 0%
Cc1ccc2c(c1)P(=O)(O)c1cc(C)ccc1O2 | · | · | 11%[46.1 µM] | · | · | 0% | -3% | -28%
O=C(COn1nnc2ccccc21)N1CCN(Cc2ccccc2)CC1 | · | -3% | 16%[46.1 µM] | · | · | ? | -10% | 24%
O=[N+]([O-])c1cc(C(F)(F)F)cc([N+](=O)[O-])c1NCCN1CCNCC1 | · | 0% | · | · | 6% | · | -23% | -27%
O=C(CSC1=NCCS1)N1CCOCC1 | -11% | 1% | 2% | 2.4% | 4% | -11% | 5% | -7%
COc1ccc(C2C(C(=O)c3cccs3)=C(O)C(=O)N2Cc2cccnc2)cc1OC (stereo not given) | · | -2% | 7% | · | -4% | 15%[46.1 µM] | 0% | -1%
Cc1cc(=O)[nH]c(SCC(=O)NC2CCCCCCC2)n1 | · | 5% | 4% | · | · | -2% | 7% | 14%
Cc1ccccc1C(=O)NNC(=O)C1CC(=O)N(Cc2ccccc2)C1 (stereo not given) | · | 1% | 1% | · | · | 23% | 7% | 25%
O=C(Cc1csc(-c2cccc(Cl)c2)n1)Nc1cccc(S(=O)(=O)NC2=NCCC2)c1 | · | · | -24% | · | · | ? | 6% | -11%
Cc1cccc(S(=O)Cc2ccc(C(=O)NC3CCN(Cc4ccccc4)CC3)o2)c1 (stereo not given) | · | -1% | · | · | -14% | · | 0% | -14%
COc1ccc(N2C(=O)C3CCCN3C2c2cccc(OC)c2)cc1 (stereo not given) | -2% | 2% | · | 9.1% | ? | · | 12% | -8%
NS(=O)(=O)c1ccc(CCNCc2cccnc2)cc1 | · | 1% | · | · | 19% | · | -1% | -10%
Cc1noc(C)c1COc1ccccc1C(=O)NCCOc1ccccc1 | · | 0% | 6% | · | · | 10% | -4% | 6%
CCOc1ccc2nc(NCCNC(=O)C(C)(C)C)c(C)cc2c1 | · | -1% | 10% | · | 3% | -3%[46.1 µM] | -2% | -4%
NS(=O)(=O)c1ccc(NC(=O)c2ccc(S(=O)(=O)N3CCc4ccccc43)cc2)cc1 | · | 2% | · | · | -5% | · | -1% | -1%
COc1ccc(-n2nnc3c(=O)n(Cc4cccc(C)c4)cnc32)cc1 | 1% | -8% | ? | -3.2% | -2% | -5% | -8% | 7%
CCOC(=O)C1CCN(C(=O)Nc2ccc(Cl)cc2Cl)CC1 | 10% | 14% | 4% | -0.3% | -11% | ? | 0% | 9%
O=C(CN1CCN(Cc2ccc(F)cc2)C1=O)NCc1ccc(F)cc1 | 0% | · | ? | 1.7% | · | · | · | ?
O=[N+]([O-])c1ccc(Cl)c(/C=N/N2CCN(C3c4ccccc4-c4ccccc43)CC2)c1 | ? | 0% | 13% | 3.1% | 12% | ? | -12% | -18%
CSc1cccc(NS(=O)(=O)c2ccc3c(c2)CCN3C(C)=O)c1 | · | 8% | · | · | -1% | · | 0% | -21%
COC(=O)c1ccc(CNC(=O)c2ccc(COc3ccccc3)cc2)cc1 | 10µM* | 7% | 0% | -2.2% | 18% | -17% | ? | -13%
CCn1c(C)nc2cc(C(=O)n3cc(C(=O)c4cc(F)ccc4O)cn3)ccc21 | 1% | 0% | · | -5.0% | -40% | · | · | ·

More structures
SMILES | Cruzain inh noDet | SARS PLP yeast | LASV entry inh | Cruzain Triton | NS1 function inh | Marburg entry inh | RE007 growth inh | StopGo reporter
NC(=O)C1CNc2ccccc2O1 (stereo not given) | -1% | 3% | -5% | -0.5% | -12% | 13% | -2% | -21%
O=C(Cc1ccc([N+](=O)[O-])cc1)Nc1ccc(C(=O)N2CCOCC2)cc1 | · | -3% | · | · | 16% | · | -10% | -16%
CCN(CC)CC(=O)c1c[nH]c2ccc(OC)cc12 | -16% | 1% | ? | 2.0% | 10% | 1% | -6% | 2%
CCN(c1ccccc1C)S(=O)(=O)c1ccc(N2CCCCS2(=O)=O)cc1 | 14% | · | ? | -2.6% | · | · | · | 8%
COCCCNC(=O)Cn1cc(/C=C(\C#N)C(=O)N2CCN(c3ccccc3)CC2)c2ccccc21 | ? | 5% | -1% | -4.8% | 5% | 1% | 21% | -9%
CCC1(c2ccccc2)NC(=O)N(CC(=O)N(C)CC(=O)Nc2ccc(F)c(F)c2F)C1=O (stereo not given) | · | 12% | 3% | · | · | 21%[46.1 µM] | 10% | -15%
Cc1nc(Nc2ccccc2O)c2oc3ccccc3c2n1 | · | -1% | · | · | 1% | · | 15% | -10%
NS(=O)(=O)c1ccc(NC2=CC(c3ccc([N+](=O)[O-])cc3)N(c3ccc(S(N)(=O)=O)cc3)C2=O)cc1 (stereo not given) | · | -4% | · | · | -1% | · | 16% | -17%
Cc1cc(C(=O)Nc2cccc3cccnc23)ccc1[N+](=O)[O-] | · | 0% | · | · | -3% | · | -24% | 0%
COc1ccc(OC)c(NC(=O)Cc2nn(C)c(=O)c3ccccc23)c1 | 6% | 16% | -4% | 0.2% | -5% | ? | -7% | ?
CCOC(=O)c1[nH]c(C)c(C(=O)NCc2ccc(C)cc2)c1C | -12% | 3% | · | 0.5% | 12% | · | 14% | 0%
COc1cc(CN2CCC(C(=O)NCC(C)(C)CN(C)C)CC2)ccc1OCc1ccccc1 | · | -1% | · | · | -13% | · | -10% | 14%
Cc1ccc2ncnc(Oc3ncccc3NC(=O)C(C)(C)C)c2c1 | · | 0% | -2%[46.1 µM] | · | 3% | -3%[46.1 µM] | -5% | -6%

High-throughput results: PubChem BioAssay, National Center for Advancing Translational Sciences (NCATS)
